Bioassay records as filed in PubChem.
Menin MLL FP FL – inhibitors of human menin-MLL interaction, wild-type MLL peptide; Fluorescence polarization, fluorescein-MLL peptide displacement from menin; FP activity change, % at 61.4 µM; 290,000 tested, under 10 active; AID 1766; inconclusive = falling polarisation curve, or a change in total fluorescence; inactive = total fluorescence flat and polarisation flat or rising; no compound was filed as active; the % refers to the polarisation; negative = inhibition;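 further: % of control where 0% means no effect; inhibitors lower the polarisation; unlabelled MLL peptide was the positive control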
Sfp PPTase inh – inhibitors of Bacillus subtilis Sfp phosphopantetheinyl transferase | Q9F4F7 | Biochemical Sfp PPTase activity, qHTS | Potency, µM, without a hit: max response, negative = inhibition, hits mostly inhibitors | hit rate 3.5% among 310,000; active means well fitted inhibition curve with a large enough effect; inconclusive means small, poorly fitted or top-dose-only effect, or another doubt; inactive means no such curve, though single readings can be large or run the other way;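 further: the enzyme is Sfp with the accession as filed and its product quenches rhodamine fluorescence; potency means the concentration at half of the fitted maximal effect; 0% = enzyme reaction without inhibitor and -100% = no enzyme wells; top concentration of the series not given in the record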
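Step 1, compound plus 15 nM Sfp-PPTase, 15 min, room temperature. Step 2, add rhodamine-CoA (5 uM) and BHQ-2-YbbR (12.5 uM). Step 3, read 525/598 nm fluorescence at 0 and 30 min.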
gsp antag – antagonizes gsp, the McCune-Albright syndrome mutation; gsp-mutant cells, cAMP HTRF, 30 min; control for the full effect not named in the record; Potency, µM (doses to about 76.9 µM), for the others: top-dose activity change, negative = inhibition, hits mostly inhibitors; hit rate 0.4% among 340,000; active = falling curve of any shape with a large fitted effect; inconclusive = falling curve, mostly with a smaller effect; inactive = flat or rising curve; cell line not stated here;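 further: intracellular cAMP measured with PDE inhibitor Ro 20-1724 present during compound exposure; potency means the concentration at half of the fitted maximal effect; on the % scale 0 is the no-effect control and ±100 the full control effect; nearly all actives have a fitted effect of over 65% in size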
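Cells in G418 medium, seeded 16-24 h, 37C; buffer exchange to DPBS + 1 mM CaCl2, 0.5 mM MgCl2, 0.05% BSA; cpds in DMSO + […] (300 uM stock), 30 min 37C; HTRF cAMP detection.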
TRPML1 inh – human mucolipin-1 channel inhibition; Q9GZU1; TRPML1-inducible cells, Ca2+ dye fluorescence, FDSS; stronger effect = lower value; inhibition of EC80 agonist-evoked calcium signal; activity change, negative = inhibition, % (concentration not given with the values); hit rate 0.02% among 390,000; AID 624415; in the data active means activity change below about -50%; inconclusive means about -30% to -50%; inactive means above about -30%;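 further: stimulus is agonist 54-4 at its EC80 concentration; on the % scale 0 is the no-effect control and ±100 the full control effect; compound concentration not given in the record; the text of the record puts the active cut at -80%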
Target sequence (Q9GZU1 whole entry, looked up): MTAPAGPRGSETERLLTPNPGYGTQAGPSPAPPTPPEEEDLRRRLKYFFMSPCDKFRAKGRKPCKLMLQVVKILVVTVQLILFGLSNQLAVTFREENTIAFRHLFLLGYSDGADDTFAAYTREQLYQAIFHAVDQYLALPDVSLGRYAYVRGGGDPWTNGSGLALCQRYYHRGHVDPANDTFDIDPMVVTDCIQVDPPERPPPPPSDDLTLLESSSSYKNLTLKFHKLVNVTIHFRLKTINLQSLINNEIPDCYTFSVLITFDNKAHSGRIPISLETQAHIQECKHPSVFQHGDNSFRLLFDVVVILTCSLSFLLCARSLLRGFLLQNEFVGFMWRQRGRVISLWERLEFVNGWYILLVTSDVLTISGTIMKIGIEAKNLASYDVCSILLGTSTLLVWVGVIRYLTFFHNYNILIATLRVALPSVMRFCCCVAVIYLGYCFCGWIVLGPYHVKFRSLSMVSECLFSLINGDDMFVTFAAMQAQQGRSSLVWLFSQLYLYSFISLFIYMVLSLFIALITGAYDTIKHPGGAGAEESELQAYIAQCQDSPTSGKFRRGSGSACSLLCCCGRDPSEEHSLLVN
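Calcium fluorescence in TRPML1-DL cells induced overnight with Tet: a 110 s read after compound pin addition, then a 110 s antagonist read after challenge with 54-4 at 4 uM final (EC80).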
ClpP mod – qHTS Assay for Activators of ClpP | hit rate 1.9% among 340,000 | ATP-dependent Clp protease proteolytic subunit (Bacillus subtilis (strain 168)), P80244 | AID 651965, 2013 | Potency, µM (top dose mostly 57.5 µM), without a hit: at the top dose activity change, negative = active | purified B. subtilis ClpP, FRET peptide cleavage, 20 min; active = well fitted falling curve with a large enough effect; inconclusive = small, poorly fitted or top-dose-only effect; inactive = no such curve, though single readings can be large or run the other way; further: potency means the concentration at half of the fitted maximal effect; the source files actives as falling curves though it sought activators and does not explain the sign; nearly all actives have a fitted effect of over 65% in size; many hits overshoot -100%
Target sequence (P80244 whole entry, looked up): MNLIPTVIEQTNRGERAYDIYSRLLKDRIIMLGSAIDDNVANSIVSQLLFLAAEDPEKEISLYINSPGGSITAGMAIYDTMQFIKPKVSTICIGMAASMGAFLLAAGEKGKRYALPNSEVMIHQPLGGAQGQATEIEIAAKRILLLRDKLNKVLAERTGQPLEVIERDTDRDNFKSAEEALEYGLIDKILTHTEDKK
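ClpP 10 microg/mL final, pH 8 Tris/KCl buffer with BSA, glycerol, Tween-20; compound pinned in; FRET-FV substrate; RT 20 min; Ex320/Em430; ΔFRET vs ADEP 5.8 microM, DMSO, no enzyme.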
TRPV1 PAM – potentiators of human vanilloid receptor 1 (TRPV1). Q8NER1. TRPV1-expressing cells, Fluo-8 calcium influx, capsaicin EC20 potentiation; host cell line not named in the record; control for the full effect not named in the record. potentiation, % at 8.33 µM. hit rate 0.02% among 320,000. AID 540277; active means potentiation above 80%; inconclusive means 30% to 80%; inactive means below 30%; further: 0% is about no effect
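TRPV1-expressing cells were cultured overnight at 35.5C and loaded with Fluo-8 calcium dye for 40 to 90 min at room temperature. After a 10 s baseline, compound was added and calcium influx was read kinetically for 3 min (ex 480/em 520 nm).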
gsp agonist – activates gsp, the McCune-Albright syndrome mutation; gsp mutant cells, cAMP HTRF, 30 min; control for the full effect not named in the record; Potency, µM (series often up to 76.9 µM), for inactives: top-dose activation (cAMP increase), most hits filed as activators; hit rate 0.13% among 340,000; AID 624287; active = well fitted activation curve with a large enough effect; inconclusive = small, poorly fitted or top-dose-only effect, or another doubt; inactive = no such curve, though single readings can be large or run the other way; cell line not stated here;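 further: phosphodiesterase inhibitor Ro 20-1724 added with compounds to block cAMP breakdown; potency means the concentration at half of the fitted maximal effect; nearly all actives have a fitted effect of over 60% in size; about a fifth of the inactives were tested at one dose only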
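Cells stably selected in G418 were plated at 2000/well, grown 16-24 hr, then given compounds in DMSO with the PDE inhibitor […] (300 uM solution added) for 30 min at 37C; cAMP was read by HTRF.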
* hit, by the source's call; ? = inconclusive; . = no result given; & = joins results of further samples; [ ] = remark or other dose. The order is random (roughly 4.9% active in at least one column).

SMILES | Menin MLL FP FL | Sfp PPTase inh | gsp antag | TRPML1 inh | ClpP mod | TRPV1 PAM | gsp agonist
Nc1nc2sc3c(c2cc1C(=O)N1CCOCC1)CCCC3 | 1.0 | -16% | 0% | 53 | ? | 1 | -11%
O=C(CCNS(=O)(=O)c1ccccc1)OCc1ccc([N+](=O)[O-])cc1 | . | . | . | 4 | -7.1% | . | -4%
COc1ccc(NC2CCCN(C(=O)c3ccc4[nH]c(C)c(C)c4c3)C2)cc1OC (stereo not given) | . | 0% | -14% | -6 | 1.9% | ? | 18%
CCSC1=NCCN1S(=O)(=O)c1ccc(F)cc1 | -5.8 | -13% | 2% | 3 | . | ? | 12%
CC(NC(=O)CCNC(=O)c1ccc(Br)cc1)c1ccc(S(N)(=O)=O)cc1 (stereo not given) | . | . | 2% | -7 | . | -8 | -12%[15.4 µM]
COc1ccc(CCN2CC(C(=O)NCc3cnn(C(C)C)c3)CCC2=O)cc1 (stereo not given) | . | 12% | 2% | 5 | 1.1% | -7 | -17%
CC(=O)N1c2ccc(S(=O)(=O)N(C)CC(=O)NCc3ccc(C)cc3)cc2CC1C (stereo not given) | . | 2% | -7% | -20 | -2.7% | 6 | 29%
CCOC(=O)c1cc(-c2ccccc2)sc1NC(=O)CSc1nnc(N)s1 | 1.3 | -5% | -49% | -9 | -1.4% | -13 | 4%[15.4 µM]
C=C(C)Cn1c(=O)c2c(nc3n2CC(C)CN3Cc2ccccc2)n(C)c1=O (stereo not given) | 2.9 | 4% | -20% | 10 | -0.3% | -12 | 1%
OCC(O)C(O)C(O)C(O)c1nc2ccccc2[nH]1 (stereo not given) | 0.6 | 4% | 0% | 18 | . | -1 | -9%[15.4 µM]
CCCNC(=O)C1CCCN(S(=O)(=O)c2ccc3c(c2)CC(C)N3C(=O)C2CC2)C1 (stereo not given) | -3.5 | 9% | 5% | 29 | 2.1% | -12 | 26%
O=C(NC1(C(F)(F)F)OCCO1)c1ccc(F)cc1 | -0.7 | 22% | 12% | -12 | -0.1% | 2 | 6%
CCN1C(C(=O)Nc2cc(C)on2)=C(O)c2ccccc2S1(=O)=O | 0.4 | 7% | -11% | 13 | -2.7% | ? | -1%
CN1C(=O)C(O)(CC(=O)c2ccccc2O)c2cc(Br)ccc21 (stereo not given) | -1.5&-0.8 | 1%&-1% | 9% | 22 | 0.7% | ? | 13%
COc1ccc(C2Nc3ccccc3C(=O)N2NS(=O)(=O)c2ccc(C)cc2)cc1OC (stereo not given) | -2.0 | 5% | -22% | -3 | -2.6% | -13 | 7%[15.4 µM]
COc1ccccc1NC(=O)N1CCN(CCc2ccccc2)CC1 | 1.6 | 7% | -7% | -9 | . | -6 | 2%[15.4 µM]
Cc1cc(C)n2nc(N)c(N=Nc3ccc4c(c3)OCO4)c2n1 | 0.4 | 5% | -11% | -27 | 0.9% | -7 | -2%
CN1CCN(S(=O)(=O)c2ccc(Cc3ccc(S(=O)(=O)N4CCN(C)CC4)cc3)cc2)CC1 | 3.2 | 12% | 6% | -3 | -0.9% | 5 | -21%
CCCn1c(NCc2cc(OC)ccc2OC)nc2ccccc21 | 2.1 | 5% | 0% | 7 | 2.2% | 26 | -24%
CCOc1ccc(C(=O)Nc2c3c(nn2-c2ccc(F)cc2)CS(=O)C3)cc1 (stereo not given) | 1.6 | 11% | 1% | 1 | 0.1% | 9 | -3%
COc1cccc(CN2CC(C(=O)N(C)Cc3nc(C)cs3)CCC2=O)c1 (stereo not given) | 1.8 | 13% | 2% | 12 | -0.3% | -5 | -37%[inhibitor]
CC(=O)CC(=O)Nc1cccc2c1CCCC2 | 2.5 | 10% | 7% | 5 | -4.6% | 13 | 16%
O=C(Nc1ccc(NC(=O)c2ccco2)c(Cl)c1)c1ccc2c(c1)OCCO2 | 2.1 | -6% | 3% | 16 | . | 5 | -4%[15.4 µM]
COc1ccc(CCC(=O)Nc2cc(Cl)ccc2N2CCN(C)CC2)cc1 | -0.2 | 4% | 1% | 16 | -1.4% | -15 | -20%
O=C(CC(c1ccco1)S(=O)(=O)c1ccccc1)c1ccc(F)cc1 (stereo not given) | 7.9 | 7.9µM* | 12% | 19 | 0.3% | -9 | 3%
CCOC(=O)N1CCN(C(=O)CSc2nnc(-c3cc(OC)cc(OC)c3)o2)CC1 | 2.0 | 23% | -9% | -2 | -1.2% | 4 | -1%
NS(=O)(=O)c1ccc2nc(NC(=O)c3ccc4c(c3)OCCO4)sc2c1 | . | 17% | 25% | 24 | -14% | 0 | ?
CC1C(=O)N2CCCc3cc(NC(=O)C(=O)NCCN4CCOCC4)cc1c32 (stereo not given) | . | . | 8% | -3 | -5.6% | -4 | -3%
Cc1cc(=O)oc(C)c1C(=O)Nc1ccc(N(C)C)cc1 | 6.8 | 6% | -12% | -3 | 1.2% | -2 | -3%
COC(=O)CCCC1=CC2=C(c3ccccc3)C(=O)C(C)(OC(=O)C3CCCC3)C(=O)C2=CN1CCN1CCOCC1 (stereo not given) | ? | -5%&0% | -13% | 8 | -1.4% | -19 | .
COc1cc2[nH]c(C(=O)NCCc3ccccc3)cc2c(OC)c1OC | 2.0 | 16% | -3% | -11 | . | -5 | -8%
CCc1nc(C)ccc1OC(=O)C12CC3CC(CC(C3)C1)C2 | 2.8 | 12% | 4% | 12 | -3.6% | 10 | -8%[15.4 µM]
CCOC(=O)c1cccc(NC(=O)CSc2nnnn2C)c1 | 4.5 | 5% | 6% | -2 | -8.3% | 17 | 1%
Cc1ccc(NS(=O)(=O)c2cc([N+](=O)[O-])ccc2NNC(=S)Nc2cc(C)ccc2C)c(C)c1 | 11 | -72% | -41% | -3 | -1.6% | 7 | 7%
O=C(c1cccc2ccccc12)C1CCCN(C(=O)CCCn2cncn2)C1 (stereo not given) | -5.9 | 15% | 4% | 4 | . | -13 | 26%
O=C(NCC(=O)N1CCCCC1)c1ccc2ccccc2c1 | . | 17% | 9% | 9 | -25% | -8 | 7%

A few values from the entries so far.
Entry for CCOC(=O)c1cccc(NC(=O)CSc2nnnn2C)c1 under TRPML1 inh: -2
Entry for O=C(CC(c1ccco1)S(=O)(=O)c1ccccc1)c1ccc(F)cc1 (stereo not given) under gsp agonist: 3%

More structures follow.
SMILES | Menin MLL FP FL | Sfp PPTase inh | gsp antag | TRPML1 inh | ClpP mod | TRPV1 PAM | gsp agonist
CC(C)c1ccc2nc3sc(C(=O)N4CCc5ccccc5C4)c(N)c3cc2c1 | ? | -30% | -3% | 4 | -2.5% | 14 | ?
Cc1ccc(C(C(=O)NC2CCCC2)N2CCCC(C)C2)cc1 (stereo not given) | 0.5 | 28% | 6% | 15 | 1.9% | -15 | 15%
COC(=O)c1c(NC(=O)CS(=O)(=O)c2ccc(C)cc2)sc2c1CCCCC2 | . | . | . | -29 | -10% | -13 | .
COc1ccc(O)c(C(=O)c2coc(=N)c(C(=O)Nc3ccc(SC(F)F)cc3)c2)c1 | ? | 1% | ? | -16 | . | -15 | -27%[15.4 µM]
CS(=O)(=O)N(CC(=O)NCc1ccc2c(c1)OCO2)c1cccc(Cl)c1 | 0.3 | 9% | 4% | ? | . | 6 | -16%
COc1ccc(OC)c(S(=O)(=O)NCc2cn3cccc(C)c3n2)c1 | -1.7 | -3% | -1% | -5 | -2.7% | -13 | -13%
CN(C)C(=O)OCc1c(-c2ccccc2)ncc2ccccc12 | . | . | ? | 32 | -7.5% | -6 | -12%
CC(=O)Oc1ccc(C(=O)Nc2cccc(C(=O)Nc3ccccc3C(=O)O)c2)cc1 | -3.3 | 19% | -10% | -23 | -3.3% | -4 | 25%
CCCC1CC(C)(C(=O)Cn2[nH]c(=O)ccc2=O)OC1=O (stereo not given) | -0.9 | 16% | 15% | 10 | 0.5% | 15 | 3%[15.4 µM]
O=S(=O)(c1ccccc1)N1N=C(c2ccc(Br)cc2)CC1c1ccco1 (stereo not given) | ? | -8% | -7% | 75 | -2.9% | 23 | 26%
O=C(Oc1cccc2c(OC(=O)N3CCCC3)cccc12)N1CCCC1 | 2.5 | 5% | 7% | 24 | -16% | 7 | 2%
C=CCNC(=O)c1ccc(N(C)S(=O)(=O)c2ccc(OC)cc2)cc1 | 3.3 | 19% | -2% | 30 | -1.2% | 1 | -63%[inhibitor]
CCc1nc2ccc(C(=O)NCCc3ccco3)cc2nc1CC | -1.6 | -8% | 6% | 10 | 1.5% | 3 | 0%
CCC/C=C/c1ccc(CN2C(C)C(=O)N(Cc3cn(CC4CCCCC4)nn3)CCS2(=O)=O)cc1 (stereo not given) | . | . | . | 16 | -0.3% | . | ?
OCCN1CCN(C(=S)Nc2ccccc2)CC1 | -0.5 | 5% | 15% | -9 | -0.6% | 5 | -2%[15.4 µM]
CCC(C(=O)NC(C)(C)C)N(Cc1ccccc1Cl)C(=O)c1snc(C(N)=O)c1N (stereo not given) | 2.2 | 5% | -4% | 12 | 5.8% | -7 | ?
CC1CC(C)CN(C(=O)CCS(=O)(=O)c2ccc3c(c2)NC(=O)CS3)C1 (stereo not given) | . | 0% | 5% | 4 | 0.4% | -4 | 0%
Cc1ccc(C)c(NC(=O)CN(C)C(=O)C2CCCC2)c1 | . | . | 11% | 23 | -0.6% | 4 | -17%
CCCc1nc2oc3cc(OC)ccc3c(=O)c2c(=O)n1CCc1ccccc1 | 0.8 | 1% | -24% | 5 | 0.3% | -7 | 0%[15.4 µM]
CC1(C)Cc2c(cnn2-c2ccc(F)cc2)C(NC(=O)C2CCC2)C1 (stereo not given) | . | 9% | -18% | 21 | 5.5% | -21 | -74%[inhibitor]
Cc1ccc(CNC(=O)CN(C(=O)C2(C)CC(=O)N=C3C=CC=CN32)c2cc(C)ccc2C)cc1 (stereo not given) | -7.7 | 11% | 8% | -2 | . | -1 | 16%[15.4 µM]
O=C(C[n+]1cccc2ccccc21)c1ccc([N+](=O)[O-])cc1 | 6.6 | -4% | -8% | 12 | . | -4 | 23%[15.4 µM]
